Source: PubChem BioAssay
H5N1 CPE = antiviral screen in MDCK cells, H5N1 avian flu; inhibition, % at 50 µM; cytopathic effect, luminescence, 72 h; hits give high values; no value below 0 was filed and about half of the inactive calls have no number; reference of the scale not given here; AID 740; 96,000 tested, 0.07% active; in the data active means inhibition above about 25%
The depositor's hits bear a star; i = inactive. The list is partial. The share of hits here may be higher or lower than overall.

SMILES	H5N1 CPE
CCOc1ccccc1NC(=O)N1CCCC1C(=O)Nc1ccc(-n2cnnn2)c(C)c1 (configuration not stated)	i
Cc1cccc(-n2c(Cn3nc(C)c([N+](=O)[O-])c3C)n[nH]c2=S)c1	1.1
Cc1c(N=Cc2ccc(Br)s2)cccc1[N+](=O)[O-]	0.0
C=CCn1c(Cc2cccs2)nnc1SC/C=C/c1ccccc1	0.9
CCOC(=O)c1ccc(NC(=O)CSc2nc3c(c(=O)n2C)SC(C)C3)cc1 (configuration not stated)	1.0
CC(C)NC(=O)c1ccccc1-c1nc(-c2ccccc2Cl)no1	i
COC(=O)/C(=C\Nc1ccccc1)NC(=O)c1ccc(Cl)cc1Cl	i
O=C(CNS(=O)(=O)c1ccc(Br)s1)NCC1COc2ccccc2O1 (configuration not stated)	i
N#CCCn1nc(-c2ccccc2)cc1-n1c(C(F)(F)F)nc2ccccc21	i
FC(F)(F)c1nc2nncn2c2c1CCCCC2	2.0
COc1cccc(C2=NOC(C(=O)NC(C)C)C2)c1 (configuration not stated)	0.5
CC(=O)N(CN1C(=O)c2ccccc2C1=O)c1ccccc1	0.3
O=C(O)c1cscn1	i
COc1ccc(OC)c2sc(N3CCCCC3)nc12	i
COc1cc(/C=N\NC(=O)C2C(=O)NCC2c2ccccc2)cc(OC)c1O (configuration not stated)	i
CCC(=O)Nc1nc2ccccc2n1CCN(C)C	i
CCOC(=O)c1ccc(N2C(=O)C3C(C2=O)C(C(=O)c2ccc(Cl)cc2)N2CCCC32)cc1 (configuration not stated)	2.2
CCN(CC)C(=O)C(C)OC(=O)COc1ccc(Cl)cc1C (configuration not stated)	0.4
CCOC(=O)c1cc(C)n(Cc2ccc(OCC)c(OC)c2)c1C	0.1
CC(=O)c1ccccc1OCCCN1CCCCC1	0.0

An excerpt from above in order of formula weight, low to high.
SMILES	H5N1 CPE
COc1cccc(C2=NOC(C(=O)NC(C)C)C2)c1 (configuration not stated)	0.5
CC(=O)N(CN1C(=O)c2ccccc2C1=O)c1ccccc1	0.3
CCOC(=O)c1cc(C)n(Cc2ccc(OCC)c(OC)c2)c1C	0.1
COc1cc(/C=N\NC(=O)C2C(=O)NCC2c2ccccc2)cc(OC)c1O (configuration not stated)	i

(list continues)
SMILES	H5N1 CPE
N#Cc1c(C(F)(F)F)cc(-c2cccc(Cl)c2)[nH]c1=O	i
C/C(=N/NC(=O)Cc1cccc2ccccc12)c1cccs1	i
CCOc1ccc(C)cc1S(=O)(=O)Nc1ccc(Cl)cn1	0.3
CCCC(=O)Nc1ccc(C(=O)Nc2nc(CC(=O)OCC)cs2)cc1	0.2
Cc1[nH]c(=O)[nH]c(=O)c1S(=O)(=O)N1CCN(c2cccc(Cl)c2)CC1	i
CC(C)CCNC(=O)C(NS(=O)(=O)c1ccc2c(c1)c(=O)n(C)c(=O)n2C)c1ccccc1 (configuration not stated)	1.3
CCC(Sc1nc2ccc(N)cc2s1)C(=O)Nc1nccs1 (configuration not stated)	3.0
COC(=O)C(C)Sc1nnc(Cc2cc(=O)[nH]c(=O)[nH]2)n1-c1cccc(OC)c1 (configuration not stated)	1.0
CC(C)(C)C(=O)Nc1nc2c(s1)COc1ccccc1-2	i
COc1ccc(N2CCN(C(=O)CCCSc3nc4ccccc4[nH]3)CC2)cc1	0.7
COc1cc([C@H]2[C@@H]3CCCC[C@]3(O)CCN2Cc2ccccc2F)ccc1O	0.1
CCn1c(=O)c2c(nc3n2CCS3)n(C)c1=O	0.0
CN(C)Cc1c(O)ccc2occ(C(=O)c3ccccc3)c12	0.1
CCCOc1ncnc2c1[nH]c1ccccc12	0.1
O=c1c2c(n3nnnc3n1Cc1ccccc1)-c1ccccc1CC21CCCC1	i
N/C(=N\OC(=O)CCc1ccccc1)c1cccc(Br)c1	i
CCOc1ccc(C(=O)Nc2ccc(S(=O)(=O)N3CCOCC3)cc2)cc1OCC	i
CN(C)/C=N/c1sc2c(c1C#N)CCC2	2.7
CCN(CC)c1nc2ccccc2c(N)c1-c1ccccc1	i
CCOC(=O)C(Cc1ccc(NC(=O)/C(=C/c2ccc(OC(C)=O)cc2)NC(C)=O)cc1)N1C(=O)c2ccccc2C1=O (configuration not stated)	i
CS(=O)(=O)N1Cc2ccccc2CC1C(=O)Nc1ccccc1C(N)=O (configuration not stated)	0.9
C=CCn1c(NC(=O)CC)c(C(=O)OCC)sc1=S	i
Cc1ccc(SCCNS(C)(=O)=O)cc1	1.0
O=C1C2CCCN2C(c2cccc(F)c2)N1c1cccc(Cl)c1 (configuration not stated)	0.1
Cc1nc2sc3c(c2c(=O)o1)CCCC3	i
Cc1cc(C)cc(Nc2ncc3c(n2)CCCC3=O)c1	i
CC(=Nc1cccc(O)c1)c1sc2ccccc2c1O	2.4
O=C(c1ccco1)N(CC1CCCO1)c1nc(-c2ccccc2)cs1 (configuration not stated)	0.1
COc1ccc(C(=O)NC2=C(C#N)CCC2)cc1OC	0.3
Cn1cnc(S(=O)(=O)N2CCc3ccccc32)c1	1.0
CCOC(=O)c1ccc(-c2cccc(C(F)(F)F)c2)nc1C	i
CSc1ccccc1NC(=O)CSCc1ccccc1Br	0.1
Cc1ccc(C2NC(=O)Cc3ccccc32)cc1 (configuration not stated)	0.5
CNc1sc(C(=O)c2cccs2)c(N)c1-c1nc2ccccc2s1	0.3
Cc1ccc(NC(=O)CCn2nc(C)cc2C)cc1	i
CC(=O)C1=NN(c2ccccc2)C2(S1)S/C(=C\c1ccccc1)C(=O)N2c1ccccc1 (configuration not stated)	1.4
Cc1ccc(SCC(=O)c2sc(-c3ccccc3)nc2C)cc1	i
CCn1cc(C(=O)NCc2ccccn2)c(=O)c2cc(F)c(N3CCN(C)CC3)cc21	4.3
CC(CN1CCN(C)CC1)OC(=O)c1ccc(Cl)cc1Cl (configuration not stated)	2.4
O=C1/C(=C\Nc2ccc(Cl)cc2)CCN1c1ncccn1	i
COC(=O)c1cc2nc(-c3ccc(OC)cc3)cc(C(F)(F)F)n2n1	0.2
CCC(CC)C(=O)Nc1nc(-c2ccc3c(c2)CCN3C(=O)C2CC2)c(C)s1	i
Cc1ccc(S(=O)(=O)Cc2ccc(C(=O)NCCCN3CCCC3=O)o2)cc1	i
CN(C(=O)NC(=O)C1=C(N2CCOCC2)/C(=C/c2ccccc2)CC1)S(C)(=O)=O	0.1
CCOC(=O)CSC1=C(C#N)C(c2ccc(Cl)cc2)C(C(=O)OC)C(=O)N1 (configuration not stated)	0.7
COc1ccccc1NC(=O)COc1ccc(CO)cc1Cl	1.6
Fc1ccccc1-c1nnc2c3ccccc3nc(N3CCOCC3)n12	0.8
CCCN1C2=C(C(=O)CC(C)(C)C2)C(c2ccc(F)cc2)C2=C1c1ccccc1C2=O (configuration not stated)	i
COc1cccc(N=c2oc3ccccc3cc2-c2nc3ccccc3[nH]2)c1	0.5
Cc1nn(C)cc1CNC(=O)C1C2CCC(O2)C1C(=O)O (configuration not stated)	i

Rewritten in markdown: entries from further up
| Compound | H5N1 CPE |
| --- | --- |
| COC(=O)/C(=C\Nc1ccccc1)NC(=O)c1ccc(Cl)cc1Cl | i |
| CCOC(=O)c1ccc(N2C(=O)C3C(C2=O)C(C(=O)c2ccc(Cl)cc2)N2CCCC32)cc1 (configuration not stated) | 2.2 |

The list goes on.
SMILES	H5N1 CPE
CCCC(=O)Nc1cc(=O)n(C)c(=O)n1C	0.7
O=C(NCCO)C(F)(F)C(F)(F)C(F)(F)OC(F)(C(=O)NCCO)C(F)(F)F (configuration not stated)	0.6
CC(C)c1ccc(NS(=O)(=O)c2cn(C)c(=O)n(C)c2=O)cc1	0.1
COc1ccc(-c2cnc(OC(C)(C)C)nc2OC(C)(C)C)cc1OC	i
O=C(C1CCCCC1)N1CCC(c2nc3ccccc3[nH]2)CC1	i
Cc1ccc(S(=O)(=O)Nc2ccc3c(c2)nc(CN2CCCC2)n3C)cc1	i
Cc1cc(-c2nn3c(-c4ccccc4)nnc3s2)c2ccccc2n1	5.8
CN1CCN(C(=O)C2CC(c3ccc(F)cc3)=NO2)CC1 (configuration not stated)	i
COc1ccc(CN2C(=O)[C@@H]3C(c4ccc(F)cc4)=NO[C@@H]3C2=O)cc1	i
COc1cc(OC)c(-c2nc3cnccc3n2C)cc1OC	0.3

Looked up one by one from above (5):
SMILES	H5N1 CPE
O=C(C1CCCCC1)N1CCC(c2nc3ccccc3[nH]2)CC1	i
COc1cc(OC)c(-c2nc3cnccc3n2C)cc1OC	0.3
O=C(NCCO)C(F)(F)C(F)(F)C(F)(F)OC(F)(C(=O)NCCO)C(F)(F)F (configuration not stated)	0.6
COc1ccc(CN2C(=O)[C@@H]3C(c4ccc(F)cc4)=NO[C@@H]3C2=O)cc1	i
CC(C)c1ccc(NS(=O)(=O)c2cn(C)c(=O)n(C)c2=O)cc1	0.1

Further records.
SMILES	H5N1 CPE
O=C(c1cccs1)N1CCn2c1nc1ccccc12	1.6
Cc1ccc(-n2c(C)nc3oc4ccccc4c(=O)c3c2=O)cc1	3.4
COc1ccc(C2C(C(=O)N3CCOCC3)CCC(=O)N2c2ccc(OC)cc2)cc1 (configuration not stated)	0.5
CC(C)CN(CC(C)C)S(=O)(=O)c1cc([N+](=O)[O-])ccc1N1CCCCCC1	3.0
CCOC(=O)N1CCN(C(=O)c2ccc3nc(C)sc3c2)CC1	0.8
CCCNC(=O)Cn1cnc2sc(C(=O)Nc3cc(OC)c(OC)c(OC)c3)c(C)c2c1=O	i
O=C(CN1c2cccc3cccc(c23)S1(=O)=O)N1CCOCC1	0.1
CCSc1nc2c([nH]c3ccccc32)c(=O)n1C	4.7
CCCCNC(=O)CSc1cc(=O)n(C)c2ccccc12	0.6
Cc1ccccc1Cn1c2ccccc2c2cnn(CC(=O)N3CCN(c4ccccc4)CC3)c(=O)c21	2.5
Cn1nnc2cc(C(=O)NC3CCCCC3)ccc21	i
Cc1n[nH]c(C)c1S(=O)(=O)N1CCN(C(=O)c2ccco2)CC1	i
O=C(C1CCCN(S(=O)(=O)c2cnc[nH]2)C1)N1CC(=O)N(CCc2ccccc2)C(=O)C1 (configuration not stated)	5.3
CCC(C)C(=O)Nc1nc(C)c(-c2csc(Nc3ccc(Cl)cc3)n2)s1 (configuration not stated)	i
O=C(CC1Oc2ccccc2NC1=O)NCCCN1CCN(Cc2ccccc2)CC1 (configuration not stated)	1.5
O=C(NCc1ccco1)c1c2c(nc3ccccc13)CCC2	0.9
CCOc1ccc2nc3c(cc2c1)CN(CCOC)C(=NCCOC)S3	0.4
COC(=O)C(Cc1ccc(O)cc1)NC(=O)C(C)Oc1ccccc1 (configuration not stated)	1.2
CCOc1ccc(C(=O)COC(=O)CC)cc1	i
COc1ccc(C)cc1S(=O)(=O)N(CC(=O)O)c1ccc(C)cc1	0.9
Nc1nc(CSc2ncccn2)nc(Nc2ccccc2)n1	i
C=CCN(c1ccc(C(=O)N2CCCC2)cc1)S(C)(=O)=O	i
O=C(Nc1ccc2c(c1)OCCO2)c1ccc(NC(=O)C2CCCO2)cc1 (configuration not stated)	i
O=C(OCC(F)(F)F)c1cccc(COc2ccc3ccccc3c2)c1	i
CN(CCOC(=O)c1ccc2c(c1)OCCO2)Cc1ccccc1	1.9
O=C(Oc1ccccc1OC(=O)N1CCOCC1)N1CCOCC1	i
COc1cc(C)nc(OCCNC(=O)COc2ccc(Cl)cc2Cl)n1	i
CC(C)CCNC(=S)NC1CCCC1	0.4
Cc1onc(-c2c(Cl)cccc2Cl)c1C(=O)c1c[nH]c(C(=O)NC2CC2)c1	0.3
CN1CCN(Cc2cc(=O)oc3ccc(Cl)cc23)CC1	4.3
O=C(CCN1C(=O)/C(=C/C=C/c2ccccc2)SC1=S)Nc1nccs1	i
O=C(O)c1ccc2c(c1)C(=O)N(c1cc(C(=O)O)ccc1Br)C2=O	0.4
Cc1ccc(-n2ncc3c(N4CCN(c5ccccc5)CC4)ncnc32)c(C)c1	i
CCCNC(=O)CSc1nc(-c2cccs2)cc(C(F)(F)F)n1	i
Cc1csc(SC(C)C(=O)Nc2ccc(Cl)cn2)n1 (configuration not stated)	i
CC(C)C(=O)Nc1cccc(C(=O)Nc2nccs2)c1	i
NC(=O)c1c(NC(=O)C2CCCO2)sc2c1CCC2 (configuration not stated)	0.9
O=C(O)CC(Cc1ccccc1)c1ccc2c(c1)OCO2 (configuration not stated)	0.1
Cc1cccc(-c2c3c(=O)n(C)c(=O)n(C)c3cn2C2CCCCC2)c1	i
O=S(=O)(c1cccs1)N1CN(Cc2ccccc2)c2nc3ccccc3nc21	i
CC(C(=O)NCCCN1CCOCC1)n1cccc1C(=O)c1ccccc1 (configuration not stated)	1.3
CCN(CC)c1ncnc2c1cnn2C	0.5
CC(=O)c1cc(-c2ccccc2)[nH]c1N1CCOCC1	i
COc1ccc(C(=O)Nc2cccnc2)cc1	0.1
CCCOc1ccc(/C(O)=C2/C(=O)C(=O)N(CCCOC)C2c2cccnc2)cc1 (configuration not stated)	0.4
CN(Cc1ccccc1)C(=O)CCNS(=O)(=O)c1ccc2c(c1)oc(=O)n2C	2.2
CCN(CC)CCNC(=O)Cn1nc(Cc2ccccc2)c2ccccc2c1=O	i
Cc1csc(NC(=O)CCn2c(=O)sc3ccccc32)n1	0.9
C=CCn1c(-c2cccn(Cc3ccc(Cl)cc3)c2=O)n[nH]c1=S	i
C=CCC(NCc1ccco1)c1ccc(OC)cc1 (configuration not stated)	0.5

Filtered by structure: the entries above with a COOH group
SMILES	H5N1 CPE
O=C(O)c1cscn1	i
Cc1nn(C)cc1CNC(=O)C1C2CCC(O2)C1C(=O)O (configuration not stated)	i
COc1ccc(C)cc1S(=O)(=O)N(CC(=O)O)c1ccc(C)cc1	0.9
O=C(O)c1ccc2c(c1)C(=O)N(c1cc(C(=O)O)ccc1Br)C2=O	0.4
O=C(O)CC(Cc1ccccc1)c1ccc2c(c1)OCO2 (configuration not stated)	0.1

Further structures follow:
SMILES	H5N1 CPE
CCc1ccc(-c2nc(CSCC(=O)N3CCN(c4ncccn4)CC3)c(C)o2)cc1	i
O=C(CCS(=O)(=O)c1cccc2nonc12)N1CCCc2ccccc21	1.6
CCn1cc(C(=O)NCc2cccnc2)c2cc(OC)c(OC)cc2c1=O	2.0
O=C(NCCCCNC(=O)c1ccco1)c1ccco1	1.3
Cn1c(=O)[nH]c(=O)c2c1nc(NCCc1ccccc1)n2CC(O)COc1ccccc1 (configuration not stated)	i
Oc1ccc(C(c2nnnn2C2CCCC2)N2CCc3ccccc3C2)cc1 (configuration not stated)	i
COc1ccc2c(c1)[nH]c1c(=O)n(CC3CCCO3)cnc12 (configuration not stated)	i
